Arbovirus inh: antivirals against arbovirus infection, primary screen, cell-based, full library, 10K replicate subset; arbovirus infection cell-based antiviral screen; hit rate 0.37% among 200,000; inhibition, % at 10 µM;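 active means inhibition from about 30%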;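 further: bluetongue infection of BSR cells; cell survival read as ATP light after 72 h; 0% = infected wells without compound and 100% = uninfected wells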
RecA splice inh: Mtb RecA intein splicing inhibitors, primary screen, biochemical, fluorescence, HTS | inhibition, %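 (about 9 µM by stock and volumes)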 | cell-free RecA intein splicing | hit rate 0.75% among 290,000 | Protein RecA (Mycobacterium tuberculosis (strain ATCC 25618 / H37Rv)), P9WHJ3; in the data active means inhibition above about 30%; inconclusive means no clear call, values can overlap the other calls;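 further: 0% = vehicle wells and 100% = reference inhibitor control wells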
Target sequence (P9WHJ3 whole entry, looked up, canonical isoform): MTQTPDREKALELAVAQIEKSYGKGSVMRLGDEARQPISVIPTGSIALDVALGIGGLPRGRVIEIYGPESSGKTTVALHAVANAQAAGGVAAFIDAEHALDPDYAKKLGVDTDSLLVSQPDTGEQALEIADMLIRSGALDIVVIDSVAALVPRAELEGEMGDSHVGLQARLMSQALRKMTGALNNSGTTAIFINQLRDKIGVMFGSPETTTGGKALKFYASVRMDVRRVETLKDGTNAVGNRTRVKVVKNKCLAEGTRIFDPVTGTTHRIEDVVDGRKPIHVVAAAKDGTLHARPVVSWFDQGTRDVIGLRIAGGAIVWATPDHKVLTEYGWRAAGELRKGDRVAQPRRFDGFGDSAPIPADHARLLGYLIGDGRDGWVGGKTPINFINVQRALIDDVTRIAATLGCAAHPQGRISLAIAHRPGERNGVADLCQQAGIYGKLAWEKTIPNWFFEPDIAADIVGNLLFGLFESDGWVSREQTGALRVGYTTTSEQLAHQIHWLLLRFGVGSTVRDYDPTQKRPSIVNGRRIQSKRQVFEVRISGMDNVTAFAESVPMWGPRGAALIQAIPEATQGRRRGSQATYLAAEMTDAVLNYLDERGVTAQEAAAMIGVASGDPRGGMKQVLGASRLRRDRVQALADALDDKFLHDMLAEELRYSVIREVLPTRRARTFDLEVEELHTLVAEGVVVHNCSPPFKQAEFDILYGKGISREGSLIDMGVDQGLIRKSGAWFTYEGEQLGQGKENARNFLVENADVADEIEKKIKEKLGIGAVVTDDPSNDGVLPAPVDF
YopH PTP inh: YopH tyrosine phosphatase inhibitors, primary screen, biochemical, fluorescence Ex485/Em525 | YopH tyrosine phosphatase [Yersinia enterocolitica] | inhibition, %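 (about 10 µM by stock and volumes)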 | hit rate 0.16% among 140,000;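 active means inhibition of 50% or more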;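 further: controls were vehicle for no effect and minimum signal wells for full effect; inactives centre near -20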
Mtb bLac sens: beta-lactam sensitization of Mtb H37Rv, H37Rv. M. tuberculosis H37Rv growth with meropenem, percent inhibition; hits of this screen are not shown here. inhibition, % at 25 µM. hit rate 0.27% among 330,000. AID 434955, 2010;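 active means about 74% or more and at least 40 points above the plate without the antibiotic, then above 30% in a dose series; inconclusive means first-round hits that could not be retested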;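 further: growth measured after seven days incubation then overnight dye step; 0% = bacteria only wells and 100% = bacteria with antibiotic; twin plates without the antibiotic show which effects depend on it; some results filed as inactive read as strong as hits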
Mtb H37Rv: M. tuberculosis H37Rv growth inhibitors, H37Rv strain (AID 1626); hit rate 0.95% among 220,000; one-dose inhibition, % at 10 µM; IC50 in µM for titrated hits; M. tuberculosis H37Rv growth inhibition; higher % means a stronger effect;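 active means confirmed in a dose series; inconclusive means inhibition above 80% but not taken into the dose series; inactive means below 80% or under 30% at every dose of the series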;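 further: bacteria incubated seven days before Alamar blue readout; 0% = bacteria only wells and 100% = bacteria with antibiotic wells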
Arbovirus inh repeat: further read-out of Arbovirus inh, marked with its call; inhibition, %; measured here: 10K subset replicate screen; many hits read low in the repeat;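 first of two repeat runs on a subset; 0% = infected and 100% = uninfected wells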
Numbers without * were called inactive; ? = inconclusive; / = no result given. Some of the compounds tested; the hit share may differ from the screen's.

SMILES	Arbovirus inh	RecA splice inh	YopH PTP inh	Mtb bLac sens	Mtb H37Rv	others
O=C(Cc1ccc(Br)cc1)Nc1ncc([N+](=O)[O-])s1	/	7.7	/	-7	5%
NS(=O)(=O)c1c(Sc2ccccc2C(=O)O)ccc2ccccc12	/	-1.7	/	-1	/
Oc1ccccc1N1CCN(c2ccc3ccccc3n2)CC1	/	-0.7	/	45	/
CCOC(=O)c1ccc(NC(=O)CN2C(=O)CNC2=O)cc1	-4	-0.4	-26	5	-6%
Cc1cc(C(=O)N2CCC(C(F)(F)F)n3nccc32)on1 (stereo not drawn)	4	-1.2	-16	-2	-19%
O=C(C1Cc2ccccc2CN1S(=O)(=O)c1cccs1)N1CCCCCC1 (stereo not drawn)	2	3.5	22	-10	-5%
Cc1onc(-c2c(F)cccc2Cl)c1C(=O)OCC(=O)NC(N)=O	-1	12	/	2	1%
Cc1cc(C)cc(NC(=O)C2CCN(S(=O)(=O)c3ccc4[nH]c(=O)ccc4c3)CC2)c1	/	0.9	/	0	/
C=CCc1c(C)nc(SC)nc1Nc1ccc(C(=O)O)cc1	-2	-1.6	-34	?	-1%
CC1CCC/C(=C\Nc2ccc3c(c2)OCO3)C1=O (stereo not drawn)	-9	1.7	-12	81	-1%
CCc1sc(-c2ccccc2)nc1C(=O)OC	/	0.4	/	-1	-12%
CSc1ccc(Cl)c(C(=O)OCC(=O)NC2CC2)c1	-2	-2.2	-7	-10	-3%
CCC1(CC)Cc2ccccc2-c2nc(NCCCO)[nH]c(=O)c21	-14	2.9	/	4	-5%
COc1ccc(OCC(=O)N2CCN(C(C)C)CC2)cc1	1	-2.3	-17	-4	-15%
CC(NC(=O)c1cc2sccc2n1C)c1ccc2c(c1)OCCO2 (stereo not drawn)	7	2.9	1	100	/
CCCC(=O)NNC(=O)CCC(=O)NCc1ccccc1	5	-0.6	-21	0	-8%
O=S(=O)(c1ccc(-n2cnnn2)cc1)N1CCC(N2CCCCC2)CC1	3	-1.0	/	-2	0%
Cc1cc(C)nc(SCCN(C)C)n1	6	-0.4	/	-1	-3%
Cc1oc(-c2ccccc2F)nc1CS(=O)(=O)CC(=O)NCCCN(C)C1CCCCC1	-2	0.5	-4	8	4%
COc1ccc2cc3c(N)nn(C(=O)Cc4ccc(Cl)cc4)c3nc2c1	12	-7.0	-10	1	/
CCCC1Oc2ccccc2C(=O)N(CC(=O)c2ccc3c(c2)OCCO3)C1=O (stereo not drawn)	/	-3.6	/	9	/
CCc1nonc1NC(=O)COc1ccc(Cl)c(C)c1	/	4.8	/	14	/
CCC(C)C(NC(=O)C1CCC(C)CC1)C(=O)NCCc1ccc(S(N)(=O)=O)cc1 (stereo not drawn)	/	3.8	/	-4	/
CC(C)c1ccc(NC(=S)NN2CCOCC2)cc1	4	-0.8	-16	2	-5%
COc1cccc(C2CC(c3ccc(C)cc3)n3nc(N)nc3N2)c1 (stereo not drawn)	7	0.6	-22	?	-7%	Arbovirus inh repeat=5
COc1ccc(-c2c(-c3ccccc3)c(C(=O)C(=O)NCCCN(C)C)n3ccc4cc(OC)c(OC)cc4c23)cc1OC	/	8.0	/	18	/
COCCN(C(=O)c1ccc(OCC(C)C)cc1)c1c(N)n(Cc2ccccc2)c(=O)[nH]c1=O	/	-3.7	/	-2	/
Cc1ccc(Cn2cnc3ccccc32)cc1C	3	6.1	-13	8	0%
O=C1c2nc3ccccn3c2C(=O)N1Cc1ccccc1	3	5.9	-19	78	9%
CN(C)c1ccc(NS(=O)(=O)c2cc3c4c(c2)CC(=O)N4CCC3)cc1	/	-4.3	/	-3	/
CC(=O)C1=C(C)NC(=O)NC1c1cccc(O)c1 (stereo not drawn)	-2	-1.9	-16	8	1%
CCc1ccc(-n2nc3ccc(NC(=O)c4ccc5c(c4)OCO5)cc3n2)cc1	-1	-0.7	-6	-18	1%
CC1=Nc2ncnn2C(c2ccccc2)/C1=N\O (stereo not drawn)	-3	15	-42	14	-6%
CCOC(=O)c1cc2c(ccn2C)n1CC(=O)N1CCN(c2cccc(C(F)(F)F)c2)CC1	-5	-2.3	-14	-3	-2%
Fc1cccc(F)c1CSc1nc2ccccc2[nH]1	5	3.4	-6	-6	0%
O=C(c1ccccc1Br)N(Cc1ccccc1)c1ccccc1	/	12	/	0	/
CCc1cccc(C)c1NC(=O)C1C2CCC(O2)C1C(=O)O (stereo not drawn)	4	-1.9	-11	5	6%
COc1cc(OC)c(NS(=O)(=O)c2cccc(C(=O)OCC(=O)NCC3CCCO3)c2)cc1Cl (stereo not drawn)	9	0.9	/	-6	-5%
O=C(Nc1ccccc1)c1ccc(CSc2ncccn2)cc1	-13	1.2	-14	7	4%
O=C(NCc1ccco1)c1ccc(NS(=O)(=O)c2cccc([N+](=O)[O-])c2)cc1	5	-0.9	/	-5	-15%
Clc1ccc(CSc2ccc(-c3cccnc3)nn2)cc1	-34	-1.0	/	/	17%
COc1ccc(/C=N/NC(=O)c2ccc(COc3ccccc3Cl)o2)cc1	-10	0.5	-32	-8	/
CN(C)c1oc(-c2cccs2)nc1C#N	2	-5.5	-35	-3	/
CC(C)(C)c1cc[n+](-c2[nH]c(=O)sc2/C=N/N=C(\[O-])c2cccnc2)cc1	/	-0.5	/	-4	/
Nc1nc(NCCCN2CCOCC2)nc(Nc2ccccc2F)c1[N+](=O)[O-]	/	-2.3	/	-6	-1%

In the list so far, 10 have four or more nitrogen atoms:
SMILES	Arbovirus inh	RecA splice inh	YopH PTP inh	Mtb bLac sens	Mtb H37Rv	others
Cc1cc(C(=O)N2CCC(C(F)(F)F)n3nccc32)on1 (stereo not drawn)	4	-1.2	-16	-2	-19%
O=S(=O)(c1ccc(-n2cnnn2)cc1)N1CCC(N2CCCCC2)CC1	3	-1.0	/	-2	0%
COc1ccc2cc3c(N)nn(C(=O)Cc4ccc(Cl)cc4)c3nc2c1	12	-7.0	-10	1	/
COc1cccc(C2CC(c3ccc(C)cc3)n3nc(N)nc3N2)c1 (stereo not drawn)	7	0.6	-22	?	-7%	Arbovirus inh repeat=5
COCCN(C(=O)c1ccc(OCC(C)C)cc1)c1c(N)n(Cc2ccccc2)c(=O)[nH]c1=O	/	-3.7	/	-2	/
CCc1ccc(-n2nc3ccc(NC(=O)c4ccc5c(c4)OCO5)cc3n2)cc1	-1	-0.7	-6	-18	1%
CC1=Nc2ncnn2C(c2ccccc2)/C1=N\O (stereo not drawn)	-3	15	-42	14	-6%
CCOC(=O)c1cc2c(ccn2C)n1CC(=O)N1CCN(c2cccc(C(F)(F)F)c2)CC1	-5	-2.3	-14	-3	-2%
CC(C)(C)c1cc[n+](-c2[nH]c(=O)sc2/C=N/N=C(\[O-])c2cccnc2)cc1	/	-0.5	/	-4	/
Nc1nc(NCCCN2CCOCC2)nc(Nc2ccccc2F)c1[N+](=O)[O-]	/	-2.3	/	-6	-1%

Carrying on:
SMILES	Arbovirus inh	RecA splice inh	YopH PTP inh	Mtb bLac sens	Mtb H37Rv	others
O=C1c2ccccc2C(=O)N1Cc1nc(-c2ccccc2)no1	/	0.9	/	?	-8%
CC(C)C(c1nnnn1Cc1ccc(F)cc1)N1CCN(C2CCCCC2)CC1 (stereo not drawn)	-1	4.2	-33	-12	4%
Cc1ccc(C(=S)N2CCN(Cc3ccccc3)CC2)cc1	-3	15	/	-6	1%
Cc1cc(C)n(CC(O)COc2ccccc2C(=O)Nc2ccccc2)n1 (stereo not drawn)	11	-0.6	-10	6	-5%
Cc1cc(C)n(-c2ccc(C(=O)O)cc2)n1	-2	-1.2	9	0	65%
CCOC(=O)CNC(=O)C(=O)c1c(O)[nH]c2ccccc12	13	-3.0	-1	3	-4%
CCOC(=O)C1CCN(C(=O)C2CCN(c3nc4ccc(OC)cc4s3)CC2)CC1	6	-3.2	-31	41	-4%
CC(=O)NC1CC2CCCC(C1)N2C(=O)Nc1ccccc1 (stereo not drawn)	3	-0.3	-135	-10	-8%
COc1cc(OC)cc(C(=O)Nc2ccc(C(=O)c3ccncc3)cc2)c1	/	-1.6	/	85	/
Cc1cc(OCC(=O)NC2CCS(=O)(=O)C2)c2c3c(c(=O)oc2c1)CCC3 (stereo not drawn)	2	-0.8	-8	-2	-5%	Arbovirus inh repeat=5
Cc1noc(C)c1C(=O)N1CCCC1	1	-0.6	-7	-4	-11%
Cc1ccc(S(=O)(=O)c2nc(-c3ccc(F)cc3)oc2SCC(N)=O)cc1	5	5.9	-21	-4	-8%	Arbovirus inh repeat=2
CC(=O)Nc1nonc1-c1nc2ccccc2n1CCC#N	17	0.0	-49	0	-7%
Cc1cc(C)cc(N(CC(=O)NCc2cccnc2)S(C)(=O)=O)c1	2	-0.6	-51	4	-11%
CC(C)CNC(=S)N1CCC(NC(=O)C23CC4CC(CC(C4)C2)C3)CC1	-4	0.8	-28	-5	-3%
NS(=O)(=O)c1ccc(Oc2ccc(S(N)(=O)=O)cc2)cc1	10	-1.6	/	-5	8%
CC(C)(C)OC(=O)Nc1ncnc2c1ncn2C1OC(CO)C2OC(C)(C)OC21 (stereo not drawn)	/	-1.6	/	-5	-12%
O=C(N/N=C/c1coc2ccccc2c1=O)c1cc2ccccc2o1	3	-3.8	4	12	4%
O=S(=O)(c1ccc2ccccc2c1)N1CCC(c2nc(-c3ccncc3)no2)CC1	-24	0.4	50*	-11	3%
N#CCCNc1c(Cl)cc(Cl)cc1C(=O)O	12	4.1	-3	1	9%
CC(=O)N1c2ccc(S(=O)(=O)N3c4ccccc4CC3C)cc2CC1C (stereo not drawn)	/	2.7	/	-2	/
CN1CCN(c2ccc(N)c(N3CCN(C)CC3)c2)CC1	1	-0.9	5	3	-11%
COc1ccc(/C=C(\NC(=O)c2ccc(OC)cc2)C(=O)NC(CCSC)C(=O)O)cc1 (stereo not drawn)	2	-1.1	-14	-14	-13%
CN1OC(Cn2cc(C#N)c(=O)n(C)c2=O)CC1c1ccccc1 (stereo not drawn)	3	-0.3	/	-1	3%
CN1CCN(Cc2ccc(-c3ccc(Cl)cc3)o2)CC1	-15	-2.0	-53	-18	4%	Arbovirus inh repeat=-11
O=c1c2cccc3c2c(nn1-c1ccccc1)-c1ccccc1-3	-9	-1.2	-34	4	-5%
Cc1c(C(=O)NN)sc(=S)n1C	/	-3.8	/	-15	-9%
O=[N+]([O-])c1cccc(/C=N/n2c(C3CCCCC3)n[nH]c2=S)c1	-3	0.7	-33	-1	-14%
CCc1nnc(NC(=O)C(NC(=O)c2ccccc2Cl)C(C)C)s1 (stereo not drawn)	3	-3.4	/	-4	3%
Cc1cc(C(=O)NCc2cccc(Cl)c2)c2ccccc2n1	/	-0.4	/	0	/
Cc1ccc(C(=O)Nc2ccccc2C(=O)O)cc1S(=O)(=O)Nc1ccc(Br)cc1	/	20	/	-7	/
COc1cccc(CN2CCCC(C(=O)N3CCCCC3)C2)c1 (stereo not drawn)	/	0.7	/	0	/
C/C(=N/NC(=O)c1nnn(-c2nonc2N)c1-c1ccccc1)c1ccc2c(c1)OCO2	/	-0.5	/	-8	/
c1ccc2c(c1)ncn2CCn1cnc2ccccc21	-2	-0.1	-39	-8	-2%
COc1cccc(NC(=O)c2cc(=O)c3ccccc3o2)c1	/	-0.9	/	3	/
CC[n+]1c(/C=C/N(C)c2ccccc2)sc2ccc(Cl)cc21	-2	3.2	10	5	3%
O=C(CC12CC3CC(CC(C3)C1)C2)Nc1ccc(C(=O)O)cc1	/	-0.6	/	0	/
COc1ccc(CCN(C)C(=O)c2cc(-c3ccccc3)nc3ccccc23)cc1OC	/	1.0	/	1	/
O=S(=O)([O-])C(c1ccccc1)[n+]1ccccc1 (stereo not drawn)	/	-3.8	/	-9	/
Cc1ccc(C)c(OCCNc2ncccc2[N+](=O)[O-])c1	/	11	/	1	/
O=c1n(-c2ccccc2)c(=O)n(Cc2ccccn2)n1Cc1ccccn1	6	-1.7	10	-2	-2%
N#CC1=C(N)Oc2cc(N)ccc2C1c1ccsc1 (stereo not drawn)	-9	-7.3	-10	-1	-1%
CC(C)OC(=O)c1nnc(Cc2ccc(F)cc2)o1	-2	2.3	-3	2	-6%	Arbovirus inh repeat=-3
c1ccc(-c2cn(-c3ccccc3)c3ncnc(NCCCN4CCOCC4)c23)cc1	-31	-4.9	/	9	2%
O=[N+]([O-])c1cc2c(c(CSc3ncccn3)c1)OCOC2	-2	0.4	/	3	1%
Cc1ccc(C(=O)N2CCC3(CC2)Oc2ccc(F)cc2C(=O)C32CC(c3ccc(Cl)cc3)=NO2)s1 (stereo not drawn)	/	6.1	/	12	-1%
CNC(C)C#Cc1ccc2oc3cc(C)c(C)cc3c(=O)c2c1 (stereo not drawn)	/	3.2	/	97	49%
